# Source: PubChem
# Cruzain Triton = blocks cruzain activity in presence of Triton detergent. purified cruzain, Z-FR-AMC fluorescence, 0.01% Triton. Potency, µM, for inactives: max response, negative = inhibition, usual class: inhibitors. actives 0.43% (n = 200,000);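 note: plate controls were neutral wells for no effect and buffer without enzyme for full effect; nearly all actives have a fitted effect of over 40% in size; top concentration of the series not given in the record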
# Target sequence (P25779 123-467 limits assumed): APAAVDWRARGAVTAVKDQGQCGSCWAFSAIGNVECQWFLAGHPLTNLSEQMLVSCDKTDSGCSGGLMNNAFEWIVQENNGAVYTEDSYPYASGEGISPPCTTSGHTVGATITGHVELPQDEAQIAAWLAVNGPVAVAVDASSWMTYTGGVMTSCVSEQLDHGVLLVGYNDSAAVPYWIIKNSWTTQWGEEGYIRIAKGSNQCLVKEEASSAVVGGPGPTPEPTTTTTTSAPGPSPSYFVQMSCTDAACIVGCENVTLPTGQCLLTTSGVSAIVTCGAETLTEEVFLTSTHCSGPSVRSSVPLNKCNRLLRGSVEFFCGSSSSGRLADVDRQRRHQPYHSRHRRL
#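 Purified cruzain (1.5 nM final) was preincubated with compounds for 15 min at room temperature in 100 mM sodium acetate pH 5.5, 5 mM DTT, 0.01% Triton X-100. Reaction started with 2 uM Z-FR-AMC; AMC fluorescence change over 60 s gave activity.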
# Cruzain noTriton = inhibitors of Trypanosoma cruzi cruzain without detergent; P25779; purified cruzain, Z-FR-AMC fluorescence, no detergent; Potency, µM, without a hit: max response, negative = inhibition, actives largely listed as inhibitors; actives 2.3% (n = 200,000); AID 1476;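 note: plate controls were enzyme without inhibitor for no effect and buffer without enzyme for full effect; nearly all actives have a fitted effect of over 40% in size; top concentration of the series not given in the record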
#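 Detergent-free condition (0.00005% Triton X-100) in acetate buffer pH 5.5 with DTT. 1.5 nM enzyme and compound were pre-mixed 15 min, then 2 uM Z-FR-AMC substrate added; reaction progress from fluorescence change between first and third reads (60 s).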
# * marks the source's active call; other numbers are inactive results; ? = inconclusive; & = joins results of further samples. Calls come from the whole dose curve; as a rule, active = well fitted curve in the direction sought with a large enough effect; inconclusive = small, poorly fitted or top-dose-only effect, or another doubt; inactive = no such curve, though single readings can be large; an effect the other way counts as inactive or inconclusive. Potency is the fitted concentration of half-maximal effect.
1) Cc1c(C)c2c(c(C)c1O)CC[C@@](C)(CCC[C@@H](C)CCC[C@@H](C)CCCC(C)C)O2
2) COc1ccc(-c2oc3cc(OC)c(OC(C)=O)c(OC)c3c(=O)c2OC)cc1OC(C)=O
3) COc1ccc(/C=C/C(=O)c2ccc(C)s2)cc1
4) CCC/C=C(\CCC)C(NS(=O)(=O)c1ccc(Cl)cc1)c1ccccc1 (stereo not drawn)
5) CCCCNc1nc(C)nc2c1nc(-c1ccccc1)n2CCN(C)C
6) COCCNc1nc(C)nc2c1nc(-c1ccccc1)n2C1CCN(Cc2ccccc2)C1 (stereo not drawn)
7) C[C@H]1OC(OC2C(O)[C@@H](O)C(OC3C(O)[C@@H](O)C(O)O[C@@H]3CO)O[C@@H]2CO)[C@H](O)C(O)C1N[C@H]1C=C(CO)[C@@H](O)[C@H](O)C1O (stereo partly drawn)
8) CN1[C@@H](C[C@@H](O)c2ccccc2)CCC[C@@H]1C[C@H](O)c1ccccc1
Assay by compound | 1 | 2 | 3 | 4 | 5 | 6 | 7 | 8
Cruzain Triton | 0.8%&-0.7% | 1.0% | -1.3% | -9.8% | -10% | 1.7% | 2.0% | 1.6%
Cruzain noTriton | -5%&7% | -5% | 2% | -29% | -1% | 5% | 1% | 0%

9) CCCCC/C=C\C/C=C\C/C=C\CCCCCCC(=O)NCC(=O)O
10) C[C@@H](C(=O)N[C@@H](CO)Cc1ccccc1)[C@@H]1C[C@@]1(C)[C@@H](NC(=O)OCc1ccccc1)c1ccccc1
11) CNC(=O)[C@H]1C[C@@H]1[C@H](NP(=O)(c1ccccc1)c1ccccc1)c1ccccc1
12) CCCC/C=C/C(NC(=O)Oc1cccc(C(F)(F)F)c1)c1ccccc1 (stereo not drawn)
13) ClCc1ccccn1
14) O=c1cc(-c2ccc(O)cc2)oc2cccc(O)c12
15) C[C@@]12CCC(=O)C=C1C=CC1C2CC[C@]2(C)C1CC[C@@]21CCC(=O)O1 (stereo partly drawn)
16) COc1ccccc1N
Assay by compound | 9 | 10 | 11 | 12 | 13 | 14 | 15 | 16
Cruzain Triton | -7.0% | 0.6% | 2.0% | -4.6% | 4.9% | -0.7% | -0.6% | -2.0%
Cruzain noTriton | 4% | ? | 5% | -5% | -3% | 2% | 2% | -3%

17) Cc1nc(N2CCOCC2)c2nc(-c3ccccc3)n(CCCN3CCOCC3)c2n1
18) CCN1C[C@@]2(COC)[C@H]3[C@@H](OC)[C@H]4C1[C@@]3([C@H](OC)C[C@@H]2O)[C@H]1C[C@@]2(O)[C@@H](OC(=O)c3ccccc3)[C@@H]1[C@@]4(OC(C)=O)[C@H](O)[C@@H]2OC
19) COC(=O)c1ccc(C(NC(=O)OCc2ccccc2)/C(=C/[C@@H](C)C(=O)NCc2ccc(OC)c(OC)c2)c2cccnc2)cc1 (stereo partly drawn)
20) COC1=CC(=O)O[C@@H](/C=C/c2ccc3c(c2)OCO3)C1
21) Cc1nn(C)c(C)c1-c1cccc2c1CCC(N(C)C)C2 (stereo not drawn)
22) Nc1cc([N+](=O)[O-])ccc1C(=O)O
23) O=C(O)c1ccc(N[C@@H]2OC[C@@H](O)[C@@H](O)[C@@H]2O)cc1
24) Cc1nc(N2CCOCC2)c2nc(-c3ccccc3)n(CC(C)(C)CN(C)C)c2n1
Assay by compound | 17 | 18 | 19 | 20 | 21 | 22 | 23 | 24
Cruzain Triton | -3.2% | -2.5% | -4.6% | 0.3% | 1.3% | 0.1% | 1.1% | -5.5%
Cruzain noTriton | -7% | -13% | ? | 11% | -18% | -2% | 3% | 0%

# Single records (already shown). Order of values: Cruzain Triton | Cruzain noTriton
# `O=C(O)c1ccc(N[C@@H]2OC[C@@H](O)[C@@H](O)[C@@H]2O)cc1` is listed as 1.1% | 3%
# `Cc1nc(N2CCOCC2)c2nc(-c3ccccc3)n(CC(C)(C)CN(C)C)c2n1` is listed as -5.5% | 0%
# `COC1=CC(=O)O[C@@H](/C=C/c2ccc3c(c2)OCO3)C1` is listed as 0.3% | 11%
# `Cc1nc(N2CCOCC2)c2nc(-c3ccccc3)n(CCCN3CCOCC3)c2n1` is listed as -3.2% | -7%

# Further entries:
25) O=c1cc(-c2ccc(O)c(O)c2)oc2cccc(O)c12
26) COC(=O)CCCC1=CC2=C(c3ccccc3)C(=O)C(C)(OC(=O)C3CCCC3)C(=O)C2=CO1 (stereo not drawn)
27) CC[C@@H]1C(c2cccc(C)c2)=NN(c2ccc(Br)cc2)[C@H]1C(=O)N1CCOC1=O
28) COC(=O)[C@@]1(Cc2ccc(OC)cc2)[C@H]2c3cc(C(=O)N4CCCC4)n(Cc4nc5ccccc5[nH]4)c3C[C@H]2CN1C(=O)c1ccccc1
29) COC(=O)[C@@H]1C[C@H]2CC[C@H](O)C[C@H]2N1Cc1c(F)cccc1Cl
30) CCC[C@@H]1C[C@@]1(CCC)C(NC(=O)c1ccc(-c2ccccc2)cc1)c1cccc(Cl)c1 (stereo partly drawn)
31) CC(C)C[C@@H](CC(=O)N[C@@H](CCCN)CC(=O)N[C@@H]1CCCC[C@H]1C(=O)N[C@H](CC(=O)N[C@@H](CCC(=O)O)CC(=O)O)Cc1ccccc1)NC(=O)[C@@H]1CNCC[C@H]1N
32) CC(C)[C@@H](CC(=O)N[C@@H]1CCNC[C@H]1C(=O)N[C@H](CC(=O)N[C@@H](CCC(=O)O)CC(=O)O)Cc1ccccc1)NC(=O)C[C@H](Cc1c[nH]c2ccccc12)NC(=O)[C@@H]1CCCC[C@H]1N
Assay by compound | 25 | 26 | 27 | 28 | 29 | 30 | 31 | 32
Cruzain Triton | -13% | 0.3% | 0.0% | -4.0% | -1.4% | 2.3% | 0.6% | 0.2%
Cruzain noTriton | 0% | 8% | ? | ? | -1% | 1% | 6% | 22%

# Sorted by heavy-atom count (high to low): 3 of the compounds above
31) CC(C)C[C@@H](CC(=O)N[C@@H](CCCN)CC(=O)N[C@@H]1CCCC[C@H]1C(=O)N[C@H](CC(=O)N[C@@H](CCC(=O)O)CC(=O)O)Cc1ccccc1)NC(=O)[C@@H]1CNCC[C@H]1N
26) COC(=O)CCCC1=CC2=C(c3ccccc3)C(=O)C(C)(OC(=O)C3CCCC3)C(=O)C2=CO1 (stereo not drawn)
25) O=c1cc(-c2ccc(O)c(O)c2)oc2cccc(O)c12
Assay by compound | 31 | 26 | 25
Cruzain Triton | 0.6% | 0.3% | -13%
Cruzain noTriton | 6% | 8% | 0%

# Next section.
33) COC(=O)c1ccc(C(NC(=O)OCc2ccccc2)/C(F)=C/[C@@H](C)C(=O)NC2CCCCC2)cc1 (stereo partly drawn)
34) N#CCCCS(=O)(=O)c1nnnn1-c1ccc(Br)cc1
35) O=C(O)c1cc2ccccc2c(Cc2cc3ccccc3c(C(=O)O)c2O)c1O (tested in a mixture with another compound)
36) ClC(Cl)(Cl)Cl
37) Cn1nnnc1SCC1=C(C(=O)O)N2C(=O)[C@@H](NC(=O)[C@@H](O)c3ccccc3)[C@@H]2SC1
38) O=[N+]([O-])c1c(Cl)cc(Cl)cc1Cl
39) C/C=C1/CN2CC[C@]34C(=C(C=O)[C@H]1C[C@@H]23)Nc1ccccc14
40) COC(=O)[C@@H]1C[C@@]2(O)[C@H](O)[C@H](O)[C@H](O)C[C@H]2N1Cc1cccnc1
Assay by compound | 33 | 34 | 35 | 36 | 37 | 38 | 39 | 40
Cruzain Triton | 1.2% | 3.5% | -10% | -0.8%&3.2% | -3.7% | -2.5% | 0.1% | -0.5%
Cruzain noTriton | -2% | 6% | -5% | 2%&6% | 6% | -7% | 3% | -4%

41) COc1ccc2c(c1)C(=O)[C@H](OC(=O)NCCOc1ccccc1)[C@@H](c1ccc(OC)c(Br)c1)O2
42) CCN(CC)CCCn1c(-c2ccccc2)nc2c(NCc3ccccc3)nc(C)nc21
43) CCCCCCCCC
44) N[C@H](CO)Cc1cnc[nH]1
45) CCCC[C@@H]1C[C@H]1C(NC(=O)c1cccs1)c1ccc(Cl)cc1 (stereo partly drawn)
46) NC(=O)NNc1ccccc1
47) C[C@H]1C2=C3C(CC[C@H]4C(OCc5ccc(F)cc5C(F)(F)F)OC[C@](C)([C@@H]34)N(C(=O)OC(C)(C)C)C2)C2COC(=O)OCC21 (stereo partly drawn)
48) CCCC(=O)c1cc(O)c(O)cc1O
Assay by compound | 41 | 42 | 43 | 44 | 45 | 46 | 47 | 48
Cruzain Triton | -6.1% | 9.4% | 3.0% | 1.6% | -4.8% | 11% | -7.5% | -14%
Cruzain noTriton | -14% | -5% | 5% | -8% | -4% | -2% | ? | 16%

49) Cc1nc(NCc2ccccc2)c2nc(-c3ccccc3)n(CCCN3CCOCC3)c2n1
50) C=CCCC#N
51) CC(=O)N1CC=CC1(CC(C)C)C(=O)O (stereo not drawn)
52) COc1cccc([C@@H]2Oc3ccc(Br)cc3C[C@H]2OC(=O)Nc2ccc(OC(F)F)cc2)c1
53) Cc1nc(NC2CCCCC2)c2nc(-c3ccccc3)n(CCCN3CCCCC3C)c2n1 (stereo not drawn)
54) COC/C=C/C1=CC2=CC(=O)C(C)(OC(=O)c3cnc4ccccc4n3)C(=O)C2=CO1 (stereo not drawn)
55) OC(c1ccc(Cl)cc1)(c1ccc(Cl)cc1)C(Cl)(Cl)Cl
56) CCC1=C2CC[C@H]3C(=O)N(CC(=O)OC)C(=O)[C@H]3[C@H]2[C@@]2(Cc3ccccc3)C(=NCCc3c[nH]c4ccccc34)OC(=O)N2C1=O
Assay by compound | 49 | 50 | 51 | 52 | 53 | 54 | 55 | 56
Cruzain Triton | -9.0% | -0.5% | -2.4% | 1.6% | 3.6% | 0.6% | 0.2% | 2.0%
Cruzain noTriton | 1% | -14% | -6% | ? | 1% | 5% | 5% | ?

57) CCC1=C2CC[C@H]3C(=O)N(C)C(=O)[C@H]3[C@H]2[C@@]2(Cc3ccccc3)C(=NCCc3c[nH]c4ccccc34)OC(=O)N2C1=O
58) CCCC[C@@H]1C[C@H]1C(NC(=O)c1ccccc1)c1ccc(C(=O)OC)cc1 (stereo partly drawn)
59) O=[N+]([O-])c1cccc2ccccc12
60) CN(C)C(=O)Oc1cc(OC(=O)N(C)C)cc([C@@H](O)CNC(C)(C)C)c1
61) Cc1ccc(C)c([N+](=O)[O-])c1
62) C=N[C@H](C(=O)N[C@@H]1C(=O)N2[C@@H]1SC(C)(C)[C@@H]2C(=O)O)c1ccccc1
63) CCC(C)(C)C
64) O=C(O)[C@@H]1CCCNC1
Assay by compound | 57 | 58 | 59 | 60 | 61 | 62 | 63 | 64
Cruzain Triton | -4.3% | -1.2% | 0.8% | -1.4% | 3.6% | -1.6% | -0.3% | 5.5%
Cruzain noTriton | ? | 1% | -1% | -9% | -7% | 5% | -5% | -6%

65) c1ccc2sc(SNC3CCCCC3)nc2c1
66) C[C@H]1[C@@H](O)[C@@H](C)\C=C/C=C\C=C/C=C\C=C/C=C\C=C/[C@@H](O[C@H]2O[C@@H](C)[C@@H](O)[C@@H](N)[C@@H]2O)C[C@@H]2O[C@](O)(C[C@@H](O)C[C@@H](O)[C@@H](O)CC[C@@H](O)C[C@@H](O)CC(=O)O[C@H]1C)C[C@@H](O)[C@H]2C(=O)O (stereo in doubt)
67) CCCn1c(-c2ccc(F)cc2)nc2c(N3CCC(N(C)C)C3)nc(C)nc21 (stereo not drawn)
68) COC(=O)[C@H]1C[C@@H]1[C@H](NS(=O)(=O)c1ccc(-c2ccccc2)cc1)c1ccccc1
69) Clc1ccc([C@H](Cn2ccnc2)OCc2c(Cl)cccc2Cl)c(Cl)c1
70) NCCC[C@@H](CC(=O)N[C@@H]1CCNC[C@H]1C(=O)N[C@H](CC(=O)N[C@@H](CCC(=O)O)CC(=O)O)Cc1ccccc1)NC(=O)C[C@H](Cc1ccccc1)NC(=O)[C@@H]1CNCC[C@H]1N
71) O=S(=O)(CCc1ccccc1)c1nnnn1-c1ccccc1
72) COc1ccc(C[C@@](C)(N)C(=O)O)cc1OC
Assay by compound | 65 | 66 | 67 | 68 | 69 | 70 | 71 | 72
Cruzain Triton | -2.1% | -0.7% | -0.2% | -2.9% | -0.6% | 2.0% | 4.6% | -1.2%
Cruzain noTriton | -12% | -3% | 1% | -2% | 5% | 2% | -1% | -4%

# The closing 2 records of the section before open the next one:
71) O=S(=O)(CCc1ccccc1)c1nnnn1-c1ccccc1
72) COc1ccc(C[C@@](C)(N)C(=O)O)cc1OC
73) CC1=CCC2CC1C2(C)C (stereo not drawn)
74) CCCCc1c2ccccc2nc2[nH]c3ccccc3c12
75) CCc1cccc2nc3c(c([Si](C)(C)C)c12)Cn1c-3cccc1=O
76) C=C(NC(=O)C(=C)NC(=O)c1csc(C2=N[C@@H]3c4csc(n4)[C@@H]4NC(=O)c5csc(n5)[C@@H]([C@](C)(O)[C@H](C)O)NC(=O)[C@@H]5CSC(=N5)/C(=C/C)NC(=O)[C@@H]([C@H](C)O)NC(=O)c5csc(n5)[C@]3(CC2)NC(=O)[C@@H](C)NC(=O)C(=C)NC(=O)[C@@H](C)NC(=O)[C@@H]([C@@H](C)CC)N[C@H]2C=Cc3c([C@H](C)O)cc(nc3[C@@H]2O)C(=O)O[C@H]4C)n1)C(N)=O
Assay by compound | 71 | 72 | 73 | 74 | 75 | 76
Cruzain Triton | 4.6% | -1.2% | 4.9% | -3.9% | -11% | -2.2%
Cruzain noTriton | -1% | -4% | 4% | -7% | 17% | ?

# Only part of the results is shown (hit frequency here may not be typical).
